2A StopGo = FMDV 2A StopGo reporter, luciferase signal; human cells with a luciferase reporter of 2A StopGo recoding; control for the full effect not named in the record; Potency, µM (series often up to 57.9 µM), for inactives: at the highest dose signal change, negative = less light; 410,000 tested, 1.2% active; active = well fitted falling curve with a large enough effect; inconclusive = small, poorly fitted or top-dose-only effect; inactive = no such curve, though single readings can be large or run the other way; tested in HEK293T cells; note: % is set by controls: 0 for no effect and ±100 for the full control effect; nearly all actives have a fitted effect of over 45% in size; luciferase light after 4 h
Cruzain inh noDet = blocks cruzain activity in detergent-free assay; P25779; purified cruzain, Z-FR-AMC fluorescence, no detergent; Potency, µM, for inactives: max response, negative = inhibition, usual class: inhibitors; 200,000 tested, 2.3% active; AID 1476;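 note: plate controls were enzyme without inhibitor for no effect and buffer without enzyme for full effect; nearly all actives have a fitted effect of over 40% in size; top concentration of the series not given in the record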
Target sequence (P25779 123-467 limits assumed): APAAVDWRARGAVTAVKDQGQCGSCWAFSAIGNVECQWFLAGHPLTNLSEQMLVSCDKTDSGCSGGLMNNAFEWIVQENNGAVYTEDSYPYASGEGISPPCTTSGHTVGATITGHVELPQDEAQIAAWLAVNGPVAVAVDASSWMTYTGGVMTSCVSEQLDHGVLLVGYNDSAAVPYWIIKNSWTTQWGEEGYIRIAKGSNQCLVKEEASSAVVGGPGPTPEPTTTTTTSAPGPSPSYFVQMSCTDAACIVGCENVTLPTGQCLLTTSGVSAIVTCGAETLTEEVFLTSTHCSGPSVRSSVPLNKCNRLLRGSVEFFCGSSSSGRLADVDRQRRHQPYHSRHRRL
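Purified cruzain at 1.5 nM, pre-incubated 15 min with compound at room temperature in 100 mM sodium acetate pH 5.5, 5 mM DTT, 0.00005% Triton X-100. Reaction started with 2 uM Z-FR-AMC; AMC fluorescence increase over 60 s gives rate.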
MARV entry inh = blocks Marburg virus binding to or entry into cells; Marburg virus pseudotyped entry inhibition, cell reporter; control for the full effect not named in the record; about a third of the inactives were read at about 46 µM; Potency, µM (highest dose often 37.8 µM), for the others: top-dose activity change, negative = inhibition, actives largely listed as inhibitors; 300,000 tested, 1.8% active; AID 540276; active = well fitted inhibition curve with a large enough effect; inconclusive = small, poorly fitted or top-dose-only effect, or effect the other way; inactive = flat fitted curve, though single readings scatter; tested in HEK293 cells; about a fifth of its hits are not listed in these tables; note: % is set by controls: 0 for no effect and ±100 for the full control effect; luciferase read-out
NS1 inh = inhibitors of influenza NS1 protein function; S. cerevisiae slowed by influenza A NS1, growth recovery by OD600; Potency, µM (top dose mostly 46.1 µM), for inactives: at the top dose activity, positive = more growth; 270,000 tested, 0.4% active; AID 2326; active means well fitted rising curve with a large enough effect; inconclusive means small, poorly fitted or top-dose-only effect; inactive means no such curve, though single readings can be large or run the other way; note: nearly all actives have a fitted effect of over 50% in size
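Compounds were scored for reversing the slow growth caused by influenza A NS1 in S. cerevisiae, measured by optical density at 600 nm. Assay medium contained 2% galactose at pH 6.0; NS1-free yeast of the same strain were the positive control.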
LASV entry inh = inhibitors of Lassa virus binding or cell entry | Lassa virus pseudotype entry inhibition, cell reporter; control for the full effect not named in the record | Potency, µM (titrated, usually from 37.9 µM), without a hit: at the highest dose activity change, negative = inhibition, most hits filed as inhibitors | 300,000 tested, 1.2% active | AID 540256; active means well fitted inhibition curve with a large enough effect; inconclusive means small, poorly fitted or top-dose-only effect, or effect the other way; inactive means flat fitted curve, though single readings scatter; tested in HEK293 cells; note: % is set by controls: 0 for no effect and ±100 for the full control effect; nearly all actives have a fitted effect of over 50% in size; luciferase read-out
Cruzain inh Det = cruzain (T. cruzi) inhibition with detergent. AID 1478. purified cruzain, Z-FR-AMC fluorescence, 0.01% Triton. 200,000 tested, 0.43% active. Potency, µM, without a hit: max response, negative = inhibition, most hits filed as inhibitors. P25779;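 note: plate controls were neutral wells for no effect and buffer without enzyme for full effect; nearly all actives have a fitted effect of over 40% in size; top concentration of the series not given in the record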
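Read-out: AMC fluorescence (360 nm excitation, 450 nm emission), four reads over 2 min, first-to-third difference used. Conditions: cruzain 1.5 nM, Z-FR-AMC 2 uM, pH 5.5 acetate, 5 mM DTT, 0.01% Triton X-100.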
SARS PLP yeast = SARS-CoV PLP inhibition in yeast | Potency, µM (highest dose often 32.9 µM), for inactives: top-dose activity, positive = growth rescue | S. cerevisiae expressing SARS-CoV PLpro, growth rescue; control for the full effect not named in the record | 330,000 tested, 0.19% active; active means well fitted rising curve with a large enough effect; inconclusive means small, poorly fitted or top-dose-only effect; inactive means no such curve, though single readings can be large or run the other way; note: 0% is about no effect; nearly all actives have a fitted effect of over 55% in size; growth read by luminescence after 48 h
RE007 growth inh = less growth of the S. pombe RE007 Vpr strain. S. pombe RE007 Vpr strain, BacTiter-Glo ATP luminescence, 24 h; control for the full effect not named in the record. Potency, µM (doses to about 92.2 µM), for inactives: top-dose activity change, negative = less growth. 360,000 tested, 0.21% active. AID 651644; active = well fitted falling curve with a large enough effect; inconclusive = small, poorly fitted or top-dose-only effect; inactive = no such curve, though single readings can be large or run the other way;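 note: % is set by controls: 0 for no effect and ±100 for the full control effect; nearly all actives have a fitted effect of over 50% in size; the assay follows cell death caused by Vpr and the record does not say whether a fall means rescue or toxicity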
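Fission yeast RE007 carrying one integrated HIV-1 vpr copy, seeded at OD 0.01 in PMG+AL medium with 23 nL pinned compound. Grown 24 h at 30 degrees; viability read by BacTiter-Glo luminescence after 5 min.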
* = called active by the depositor; ? = inconclusive; . = no result given; & = joins results of further samples; [ ] = remark or other dose. Unless noted, calls come from the whole dose curve; as a rule, active = well fitted curve in the direction sought with a large enough effect; inconclusive = small, poorly fitted or top-dose-only effect, or another doubt; inactive = no such curve, though single readings can be large; an effect the other way counts as inactive or inconclusive. Potency is the fitted concentration of half-maximal effect.

canonical_smiles,Cruzain inh Det,SARS PLP yeast,MARV entry inh,Cruzain inh noDet,NS1 inh,2A StopGo,RE007 growth inh,LASV entry inh
CC(=O)Nc1ccc(Nc2ccc3cc(S(=O)(=O)N4CCCCC4)ccc3n2)cc1,-9.8%,.,.,5%,.,-1%,.,-4%[46.1 µM]
O=C(O)c1ccc2cccnc2c1O,.,1%,11%[46.1 µM],.,3%,-2%,0%,19%
CC(=O)Nc1ccccc1/C=C/c1ccc2c(C)ccc(O)c2n1,-8.5%,2%,-18%,-5%,3%,0%,-5%,-23%
CCOC(=O)C1CCN(C(=O)CNC(=O)c2nn(-c3ccc(OC)c(OC)c3)c(=O)c3ccccc23)CC1,.,0%,?,.,4%,-8%,16%,-2%[46.1 µM]
CCc1ccccc1Nc1nn2c(=O)c3ccc(C(=O)NCCCOC(C)C)cc3nc2s1,0.3%,0%,.,5%,.,-9%,.,-1%[46.1 µM]
COc1ccc(NC(=O)CSc2nncn3c2cc2occc23)c(OC)c1,-6.4%,.,.,-2%,.,-24%,.,16%[46.1 µM]
CC1(C)CN(S(=O)(=O)OCC(Cl)(Cl)Cl)C(=O)N1,.,3%,.,.,17%,-6%,-4%,.
c1ccc(-n2cnnc2SCc2cn3cccnc3n2)cc1,-1.0%,3%,9%,1%,3%,.,-9%,10%
COc1ccc(NC(=O)CCc2nnc3ccc(N4CCC(C)CC4)nn23)cc1,.,-2%,.,.,-3%,-19%,30%,.
FC(F)(F)c1nc2ccccc2c2nc3ccccc3n12,-4.7%,2%,?,2%,-9%,11%,2%,-7%
Cc1ccc(-n2nc(-c3ccco3)cc2C(=O)O)cc1,.,1%,.,.,9%,-5%,2%,.
Cc1cc(=O)n2c3ccccc3n(CC(O)CN3CCOCC3)c2c1C#N (stereo not drawn),.,-1%,-8%[46.1 µM],.,6%,-24%,-10%,-10%[46.1 µM]

Other results follow:
canonical_smiles,Cruzain inh Det,SARS PLP yeast,MARV entry inh,Cruzain inh noDet,NS1 inh,2A StopGo,RE007 growth inh,LASV entry inh
Cc1[nH]c2ccccc2c1/C=N/NC(=O)Cc1cccs1,-7.0%,-34%,9%,-2%,-1%,35%[activator],3%,-9%
COc1cc(-c2noc(CSc3nc(-c4ccc(F)cc4)cc(=O)[nH]3)n2)cc(OC)c1OC,2.7%,.,.,-12%,.,6%,.,1%[46.1 µM]
O=C(COc1cc2oc(=O)c3c(c2cc1Cl)CCC3)Nc1cccnc1,.,-1%,.,.,-9%,36%[activator],-14%,.
CC1Cc2ccccc2N1C(=O)CSc1nn2c(=O)c(C(C)(C)C)nnc2s1 (stereo not drawn),.,-4%,6%[46.1 µM],.,.,-23%,7%,?
Oc1c(C(c2ccc(F)cc2)N2CCc3ccccc3C2)sc2ncnn12 (stereo not drawn),-4.5%,0%,.,-1%,8%,14%,-11%,.
CCOc1ccc(CCNC(=O)C2CCN(S(=O)(=O)CC)CC2)cc1OCC,2.5%,3%,-2%,-3%,-8%,.,0%,19%
COc1ccc(-c2c(C)c3ccc(O)c(CN4CCCC4)c3oc2=O)cc1OC,-11%,.,.,-3%,.,-13%,.,?
Cc1cccc(NC(=O)COc2coc(CN3CCc4ccccc4C3)cc2=O)c1,.,0%,-14%,.,.,?,23%,?
CCCC(=O)Nc1c(C(=O)OCC)oc2ccccc12,.,3%,-3%,.,.,6%,2%,4%
CC(=O)Nc1ccccc1NC(=O)C/C(C)=N/NC(=O)c1ccccn1,.,0%,15%,.,1%,48%[activator],-10%,10%
CC(C(=O)NCCCc1ccccc1)n1cccc1C(=O)c1ccccc1 (stereo not drawn),.,0%,.,.,-36%,-3%,-1%,.
CCc1c(C(=O)NNC(=S)Nc2ccc(S(=O)(=O)Nc3ncccn3)cc2)csc1C,.,0%,.,.,13%,6%,-4%,.

Next section.
canonical_smiles,Cruzain inh Det,SARS PLP yeast,MARV entry inh,Cruzain inh noDet,NS1 inh,2A StopGo,RE007 growth inh,LASV entry inh
O=c1[nH][nH]c(C(F)(F)F)c1C=Nc1ccccc1Cl,0.1%,-8%,12%,-1%,10%,-16%,0%,1%
Cc1cc(S(=O)(=O)N2CCN(CC(=O)NC(C)(C#N)C3CC3)CC2)ccc1Br (stereo not drawn),.,-4%,-7%[46.1 µM],.,.,-22%,-20%,-15%
O=S(=O)(Nc1ccc(Cc2ccncc2)cc1)c1ccc(Br)cc1,0.0%,-4%,?,-5%,9%,-13%,7%,?
C=CCC1(CC=C)CCCN1C(=O)c1cc(COc2ccc(F)c(F)c2)on1,.,-3%,.,.,-30%,?,13%,.
Cc1cccc(OCCCCn2c(C3CC(=O)N(c4ccc(C)cc4C)C3)nc3ccccc32)c1 (stereo not drawn),-13%,.,?,?,.,?,.,?
Cc1ccccc1NC(=O)c1cc2c(-c3ccccc3)nn(-c3ccccc3)c2s1,-1.3%,.,-7%[46.1 µM],?,.,-18%,.,8%[46.1 µM]
COc1cc2c(cc1OC)CN(S(=O)(=O)c1cccs1)CC2,-3.3%,-2%,2%,2%,-19%,-17%,-2%,-2%
N/N=C(\c1ccccc1)C12CN3CN(CN(C3)C1)C2,-4.7%,27%,14%[46.1 µM],-1%,34%,-12%,10%,8%
Cc1cc2cc(C(c3nnnn3Cc3ccco3)N3CCc4ccccc4C3)c(=O)[nH]c2cc1C (stereo not drawn),-11%,1%,?,-25%,10%,-22%,-4%,?
CCOC(=O)C1(Cc2cccc(OC)c2)CCN(Cc2cccc(OC)c2OC)CC1,.,1%,?,.,-4%,?,-10%,-26%
CN(C)CCN1C(=O)C(=O)/C(=C(/O)c2ccc(S(=O)(=O)N3CCOCC3)cc2)C1c1ccc(Br)cc1 (stereo not drawn),.,5%,30%,.,-1%,-15%,-14%,11%
CCOCCCNC(=O)CSc1nc2nc(C)c(Cc3ccccc3)c(C)n2n1,.,0%,6%[46.1 µM],.,.,2%,0%,-8%[46.1 µM]

(cont.)
canonical_smiles,Cruzain inh Det,SARS PLP yeast,MARV entry inh,Cruzain inh noDet,NS1 inh,2A StopGo,RE007 growth inh,LASV entry inh
COC(=O)c1cc(COc2ccc3ccc(=O)oc3c2)c(C)o1,-0.8%,-5%,-5%,-6%,-4%,11%,-9%,2%
Cc1oc(/N=C/c2ccc(O)cc2O)c(C#N)c1C,.,-5%,8%,.,.,0%,-9%,13%
COc1ccc(CC(NC(C)=O)C(=O)NC2CCN(C(=O)C3CC3)CC2)cc1OC (stereo not drawn),.,0%,0%[46.1 µM],.,0%,5%,7%,13%[46.1 µM]
CCOC(=O)N1CCN(C(=O)c2ccc3c(=O)n(-c4ccc(OC)cc4OC)c(=S)[nH]c3c2)CC1,-1.6%,1%,3%,13%,13%,9%,3%,13%
Cc1nnc2ccc(N3CCN(c4ccccn4)CC3)nn12,-1.3%,5%,.,0%,-5%,-17%,-8%,.
O=C(Cn1cc(C(=O)c2ccco2)c2ccccc21)Nc1ccccc1,-9.9%&-11%,1%,?,8%&-2%,-11%,5%&-9%,26%,-6%[46.1 µM]
CCN(c1cc(C)cc(C)c1)S(=O)(=O)c1nnc(NC(=O)c2ccco2)s1,-5.8%,-2%,.,-19%,-17%,-11%&-3%,-15%,-10%[46.1 µM]
CCCC[N+]12CCC(CC1)C(C(=O)c1cccs1)C2 (stereo not drawn),5.2%,1%,2%,-4%,9%,-4%,-18%,-6%
COc1ccc(N/C=C\C(=O)c2ccc3c(c2)OCO3)cc1OC,-7.1%,11%,26%,3%,-33%,46%[activator],?,1%
O=[N+]([O-])c1ccc(Cl)c(CN2CCCCCC2)c1,.,0%,16%,.,-11%,-7%,-7%,14%
Cc1ccc(NC(=O)CCS(=O)(=O)c2cccc3nonc23)cc1Cl,-5.2%,2%,1%&25%[46.1 µM],-2%,6%,-16%&11%,7%,-9%
O=C(O)C1CCCCC1C(=O)NCc1ccc2c(c1)OCO2 (stereo not drawn),.,0%,-3%[46.1 µM],.,2%,-1%,-11%,-14%

The list goes on.
canonical_smiles,Cruzain inh Det,SARS PLP yeast,MARV entry inh,Cruzain inh noDet,NS1 inh,2A StopGo,RE007 growth inh,LASV entry inh
COc1ccc(/C=N/N=C2/NC(=O)C(CC(=O)O)S2)cc1OCc1ccc(Cl)cc1Cl (stereo not drawn),-21%,26%,1.1µM*,15%,8%,-15%,-12%,-4%
Clc1cccc(Cl)c1CNc1ccc(N2CCCC2)cc1,.,-1%,?,.,6%,-9%,2%,4%
Cc1ccc(NS(=O)(=O)c2c(C)nc3sccn3c2=O)cc1,.,1%,.,.,-10%,0%,-6%,.
COc1ccc(-n2c(SCC(=O)c3ccc(Cl)cc3)nc3c([nH]c4ccccc43)c2=O)cc1,-2.8%,.,.,-5%,.,-21%,.,?
Clc1ccc(C=Cc2ccccn2)c(Cl)c1,.,.,?,.,.,-3%,-8%,?
CC(C)NC(=O)NNC(=O)c1cc(COc2cc(Cl)cc(Cl)c2)on1,.,-5%,2%,.,0%,-14%,-11%,?
CCCCNc1nc2c(S(=O)(=O)c3ccc(Br)cc3)nnn2c2ccsc12,-1.3%,.,.,-3%,.,-22%,.,25%[46.1 µM]
COc1ccc(OC)c(NC(=O)C2CCN(S(=O)(=O)c3ccc4c(c3)CCCC(=O)N4)CC2)c1,-2.1%,.,.,11%,.,-14%,.,4%[46.1 µM]
NC(=O)CSc1nc2sc3c(c2c2ncnn12)CCCC3,-1.7%,-16%,-3%[46.1 µM],-6%,-37%,-4%,5%,-7%
Cc1ccc2[nH]c(=O)c(CN(Cc3nnnn3C3CCCC3)C3CCCCC3)cc2c1,-1.9%,1%,-3%,-10%,-51%,.,10%,1%
CCn1c(CNC(=O)c2cccc(C)c2)nnc1SCC(=O)NC1=NCCS1,.,2%,13%[46.1 µM],.,7%,7%,-13%,4%
O=[N+]([O-])c1ccc(N2CCNCC2)cc1NCc1cccnc1,-16%,5%,?,-27%,28%,-6%,.,4%
Cc1c(NC(=O)COC(=O)c2cc(-c3cccc4ccccc34)nc3ccccc23)c(=O)n(-c2ccccc2)n1C,-5.0%,22%,?,?,?,?,6%,1%
